MARV entry inh: qHTS for inhibitors of binding or entry into cells for Marburg Virus; Marburg virus pseudotyped entry inhibition, cell reporter; control for the full effect not named in the record; about a third of the inactives were read at about 46 µM; 300,000 compounds, 1.8% hits; AID 540276, 2011; Potency, µM (series often up to 37.8 µM), for inactives: top-dose activity change, negative = inhibition, most hits filed as inhibitors; active = well fitted inhibition curve with a large enough effect; inconclusive = small, poorly fitted or top-dose-only effect, or effect the other way; inactive = flat fitted curve, though single readings scatter; tested in HEK293 cells; about a fifth of its hits are not listed in these tables; note: % is set by controls: 0 for no effect and ±100 for the full control effect; luciferase read-out
StopGo reporter: High Throughput Screening for Foot and Mouth Disease Virus Antivirals. AID 1159524, 2015. human cells with a luciferase reporter of 2A StopGo recoding; control for the full effect not named in the record. 410,000 compounds, 1.2% hits. Potency, µM (series often up to 57.9 µM), inactives show at the highest dose signal change, negative = less light; active = well fitted falling curve with a large enough effect; inconclusive = small, poorly fitted or top-dose-only effect; inactive = no such curve, though single readings can be large or run the other way; tested in HEK293T cells; note: % is set by controls: 0 for no effect and ±100 for the full control effect; nearly all actives have a fitted effect of over 45% in size; luciferase light after 4 h
Cruzain noTriton: qHTS Assay for Promiscuous and Specific Inhibitors of Cruzain (without detergent); 200,000 compounds, 2.3% hits; Potency, µM, without a hit: max response, negative = inhibition, usual class: inhibitors; purified cruzain, Z-FR-AMC fluorescence, no detergent; Cruzipain (Trypanosoma cruzi), P25779;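 note: plate controls were enzyme without inhibitor for no effect and buffer without enzyme for full effect; nearly all actives have a fitted effect of over 40% in size; top concentration of the series not given in the record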
Target sequence (P25779 123-467 limits assumed): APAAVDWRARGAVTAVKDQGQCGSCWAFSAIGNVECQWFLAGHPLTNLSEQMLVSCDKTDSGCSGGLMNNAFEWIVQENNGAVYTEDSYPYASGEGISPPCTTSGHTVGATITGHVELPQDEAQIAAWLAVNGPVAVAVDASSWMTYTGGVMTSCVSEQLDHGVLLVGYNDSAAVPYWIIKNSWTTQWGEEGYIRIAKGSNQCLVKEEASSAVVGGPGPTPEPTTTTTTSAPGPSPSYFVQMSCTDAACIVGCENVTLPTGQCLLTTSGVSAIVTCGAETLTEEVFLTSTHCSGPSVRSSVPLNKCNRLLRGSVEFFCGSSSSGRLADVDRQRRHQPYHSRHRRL
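Detergent-free condition (0.00005% Triton X-100) in acetate buffer pH 5.5 with DTT. 1.5 nM enzyme and compound were pre-mixed 15 min, then 2 uM Z-FR-AMC substrate added; reaction progress from fluorescence change between first and third reads (60 s).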
SARS PLpro yeast: qHTS of Yeast-based Assay for SARS-CoV PLP | S. cerevisiae expressing SARS-CoV PLpro, growth rescue; control for the full effect not named in the record | Potency, µM (doses to about 32.9 µM), inactives show at the top dose activity, positive = growth rescue | 330,000 compounds, 0.19% hits | AID 485353, 2010; active means well fitted rising curve with a large enough effect; inconclusive means small, poorly fitted or top-dose-only effect; inactive means no such curve, though single readings can be large or run the other way; note: 0% is about no effect; nearly all actives have a fitted effect of over 55% in size; growth read by luminescence after 48 h
Cruzain Triton: qHTS Assay for Promiscuous and Specific Inhibitors of Cruzain (with detergent). Cruzipain (Trypanosoma cruzi), P25779. purified cruzain, Z-FR-AMC fluorescence, 0.01% Triton. Potency, µM, for the others: max response, negative = inhibition, most hits filed as inhibitors. 200,000 compounds, 0.43% hits;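 note: plate controls were neutral wells for no effect and buffer without enzyme for full effect; nearly all actives have a fitted effect of over 40% in size; top concentration of the series not given in the record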
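Detergent-containing arm of a paired screen for aggregation-based inhibition: 0.01% Triton X-100 present. Cruzain at 1.5 nM cleaved 2 uM Z-FR-AMC at pH 5.5 with 5 mM DTT; AMC fluorescence gain over 60 s measured activity.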
NS1 function inh: qHTS Assay for Inhibitors of Influenza NS1 Protein Function | S. cerevisiae slowed by influenza A NS1, growth recovery by OD600 | Potency, µM (top dose mostly 46.1 µM), inactives show at the highest dose activity, positive = more growth | 270,000 compounds, 0.4% hits | AID 2326, 2010; active means well fitted rising curve with a large enough effect; inconclusive means small, poorly fitted or top-dose-only effect; inactive means no such curve, though single readings can be large or run the other way; note: nearly all actives have a fitted effect of over 50% in size
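Compounds were scored for reversing the slow growth caused by influenza A NS1 in S. cerevisiae, measured by optical density at 600 nm. Assay medium contained 2% galactose at pH 6.0; NS1-free yeast of the same strain were the positive control.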
Lassa entry inh: qHTS for Inhibitors of binding or entry into cells for Lassa Virus; Lassa virus pseudotype entry inhibition, cell reporter; control for the full effect not named in the record; Potency, µM (series often up to 37.9 µM), inactives show at the top dose activity change, negative = inhibition, actives largely listed as inhibitors; 300,000 compounds, 1.2% hits; active means well fitted inhibition curve with a large enough effect; inconclusive means small, poorly fitted or top-dose-only effect, or effect the other way; inactive means flat fitted curve, though single readings scatter; tested in HEK293 cells; note: % is set by controls: 0 for no effect and ±100 for the full control effect; nearly all actives have a fitted effect of over 50% in size; luciferase read-out
RE007 growth inh: qHTS Assay for Inhibitors of the HIV-1 protein Vpr; S. pombe RE007 Vpr strain, BacTiter-Glo ATP luminescence, 24 h; control for the full effect not named in the record; Potency, µM (titrated, usually from 92.2 µM), without a hit: at the highest dose activity change, negative = less growth; 360,000 compounds, 0.21% hits; AID 651644, 2012; active = well fitted falling curve with a large enough effect; inconclusive = small, poorly fitted or top-dose-only effect; inactive = no such curve, though single readings can be large or run the other way;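 note: % is set by controls: 0 for no effect and ±100 for the full control effect; nearly all actives have a fitted effect of over 50% in size; the assay follows cell death caused by Vpr and the record does not say whether a fall means rescue or toxicity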
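Fission yeast RE007 carrying one integrated HIV-1 vpr copy, seeded at OD 0.01 in PMG+AL medium with 23 nL pinned compound. Grown 24 h at 30 degrees; viability read by BacTiter-Glo luminescence after 5 min.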
* marks the source's active call; other numbers are inactive results; & = joins results of further samples; [ ] = another dose, or the depositor's remark. Unless noted, calls come from the whole dose curve; as a rule, active = well fitted curve in the direction sought with a large enough effect; inconclusive = small, poorly fitted or top-dose-only effect, or another doubt; inactive = no such curve, though single readings can be large; an effect the other way counts as inactive or inconclusive. Potency is the fitted concentration of half-maximal effect. An unsorted share of the library, and some 4.7% of all compounds hit somewhere here.

What do the screens show for `COc1ccccc1NS(=O)(=O)c1ccc(NC(C)=O)cc1`?
MARV entry inh: 19%; StopGo reporter: -10%; Cruzain noTriton: -4%; SARS PLpro yeast: 6%; Cruzain Triton: -2.5%; NS1 function inh: 18%; Lassa entry inh: 1%; RE007 growth inh: 4%

How did C=CCn1c(SCC(=O)NCc2ccc3c(c2)OCO3)nnc1C1COc2ccccc2O1 (stereo unspecified) do in these assays?
MARV entry inh: -27%&-27%; StopGo reporter: -12%; Cruzain noTriton: 15%; SARS PLpro yeast: 0%; Cruzain Triton: -7.4%; NS1 function inh: -10%; Lassa entry inh: -5%; RE007 growth inh: 15%

What do the screens show for `CCOC(=O)CSc1nnc(N)s1`?
MARV entry inh: 8%; StopGo reporter: 3%; Cruzain noTriton: -15%; SARS PLpro yeast: 0%; Cruzain Triton: 5.8%; NS1 function inh: 4%; Lassa entry inh: -6%; RE007 growth inh: 4%

What do the screens show for `Cc1cc(C)c2[nH]c(C(=O)Nc3ccc4c(c3)OCO4)cc2c1`?
StopGo reporter: 24%; SARS PLpro yeast: -5%; NS1 function inh: 7%; RE007 growth inh: -12%

Results for Cc1nnc(SCC(=O)Nc2ccc3c(c2)OCO3)o1 ?
MARV entry inh: 10%[46.1 µM]; StopGo reporter: -4%; Cruzain noTriton: 4%; SARS PLpro yeast: -2%; Cruzain Triton: 2.6%; NS1 function inh: -5%; Lassa entry inh: -4%; RE007 growth inh: -22%

How did O=C(Nc1ccc(S(=O)(=O)NC2=NCCCCC2)cc1)c1cc(F)c(F)cc1Cl do in these assays?
MARV entry inh: 4%; StopGo reporter: -11%; SARS PLpro yeast: 0%; Lassa entry inh: -2%; RE007 growth inh: -7%

What do the screens show for `CC(=O)Nc1ccc(NC(=O)COC(=O)c2cnccn2)cc1`?
MARV entry inh: -23%[46.1 µM]; StopGo reporter: -9%; SARS PLpro yeast: -1%; NS1 function inh: 4%; Lassa entry inh: 8%[46.1 µM]; RE007 growth inh: 2%

Results for Cc1ccc(NS(=O)(=O)c2cccc(C(=O)NCC(c3ccco3)N3CCCCC3)c2)cc1 (stereo unspecified) ?
MARV entry inh: inconclusive; StopGo reporter: -13%; SARS PLpro yeast: 3%; NS1 function inh: 5%; Lassa entry inh: inconclusive; RE007 growth inh: 4%

Results for O=C(CCC(=O)Nc1ccccc1Cl)NNC(=O)NC1CCCCC1 ?
MARV entry inh: 10%; StopGo reporter: -10%; SARS PLpro yeast: -3%; NS1 function inh: -2%; Lassa entry inh: 10%; RE007 growth inh: 14%

How did Cc1cccc(C2c3[nH]c4ccccc4c3CCN2Cc2cccn2-c2ncccn2)c1 (stereo unspecified) do in these assays?
MARV entry inh: inconclusive; StopGo reporter: -6%; SARS PLpro yeast: -1%; NS1 function inh: 1%; Lassa entry inh: 11µM*; RE007 growth inh: -9%

How did Cc1nc(NCc2ccco2)c2oc3ccccc3c2n1 do in these assays?
MARV entry inh: -26%; StopGo reporter: inconclusive; Cruzain noTriton: 0%; SARS PLpro yeast: -25%; Cruzain Triton: -3.2%; NS1 function inh: -85%; Lassa entry inh: 1%; RE007 growth inh: -14%

How did COc1ccc(-c2ccc(F)cc2)cc1[C@H]1[C@H]2C=CC[C@@H](C)[C@@H]2C(=O)N1Cc1ccccc1 do in these assays?
StopGo reporter: 0%; SARS PLpro yeast: -7%; NS1 function inh: 8%; RE007 growth inh: -12%

Results for CSCc1ccc(C(=O)Nc2ccc(C(N)=O)cc2)cc1 ?
MARV entry inh: -21%; StopGo reporter: 59%[activator]; SARS PLpro yeast: -1%; NS1 function inh: -1%; Lassa entry inh: 3%; RE007 growth inh: -1%

Results for CCc1noc(C)c1C(=O)N1CCCC(N2CCN(c3ccc(F)cc3)CC2)C1 (stereo unspecified) ?
MARV entry inh: 2%; StopGo reporter: inconclusive; Lassa entry inh: 6%; RE007 growth inh: 15%

Results for S=c1[nH]nc(-c2ccccn2)n1/N=C/c1ccc(-c2ccccc2Cl)o1 ?
MARV entry inh: inconclusive; StopGo reporter: -8%; SARS PLpro yeast: -5%; Lassa entry inh: inconclusive; RE007 growth inh: 6%

Results for CCCCn1c2ccccc2c2nnc(SCC(=O)NC3=NN=C(c4ccccc4)CS3)nc21 ?
MARV entry inh: -1%; Cruzain noTriton: inconclusive; SARS PLpro yeast: -38%; Cruzain Triton: -9.2%; NS1 function inh: 4%

How did O=C(CSc1ccc2nnc(-c3ccccn3)n2n1)Nc1ccccc1 do in these assays?
MARV entry inh: inconclusive; StopGo reporter: -16%; SARS PLpro yeast: 1%; NS1 function inh: 7%; Lassa entry inh: 11%; RE007 growth inh: 3%

How did Cc1cc(Br)cc2c1N(Cc1ccccc1OC(C)C)C(=O)C2=O do in these assays?
MARV entry inh: inconclusive; StopGo reporter: 0%; Cruzain noTriton: -25%; Cruzain Triton: -4.5%; Lassa entry inh: inconclusive

How did O=C(c1cccc(Cl)c1)N(Cc1ccco1)Cc1ccccc1Cl do in these assays?
MARV entry inh: inconclusive; StopGo reporter: -8%; Cruzain noTriton: -11%; Cruzain Triton: -9.8%; Lassa entry inh: -7%[46.1 µM]

What do the screens show for `COc1cc2cc(C(N)=O)c(N)nc2cc1OC`?
MARV entry inh: -3%; StopGo reporter: 0%; Cruzain noTriton: 16µM*; SARS PLpro yeast: 7%[6.58 µM]; Cruzain Triton: 28µM*; NS1 function inh: -1%; Lassa entry inh: 26%; RE007 growth inh: -13%

What do the screens show for `O=S(=O)(Cc1ccc(Cl)cc1)N1CCCC1`?
MARV entry inh: 20%; Cruzain noTriton: -7%; SARS PLpro yeast: -3%; Cruzain Triton: 0.1%; NS1 function inh: 6%; Lassa entry inh: 5%; RE007 growth inh: -8%

How did O=S(=O)(Nc1cccc(-n2cnnn2)c1)c1cnc(Cl)c(Cl)c1 do in these assays?
StopGo reporter: 33%[activator]; SARS PLpro yeast: 2%; NS1 function inh: 3%; RE007 growth inh: 0%

How did COc1ccc(N=c2oc3ccc(OC)cc3cc2-c2nc3ccccc3[nH]2)cc1 do in these assays?
MARV entry inh: inconclusive; StopGo reporter: -8%; Cruzain noTriton: inconclusive; Cruzain Triton: 5.2%; NS1 function inh: 0%; Lassa entry inh: inconclusive; RE007 growth inh: -17%

How did Cc1onc(-c2ccccc2)c1C(=O)N/N=C/c1ccccc1OC(C)C do in these assays?
StopGo reporter: inconclusive; SARS PLpro yeast: 6%; NS1 function inh: 28%; RE007 growth inh: -4%

Results for Cc1cc(C)nc(NC(=O)c2c(-c3c(Cl)cccc3Cl)noc2C)n1 ?
MARV entry inh: -14%; StopGo reporter: -7%; Cruzain noTriton: 8%; SARS PLpro yeast: 3%; Cruzain Triton: 3.2%; NS1 function inh: 16%; Lassa entry inh: inconclusive; RE007 growth inh: 1%

How did COc1ccccc1C(=O)Nc1ccc(-c2nc3cc(C)cc(C)c3o2)cc1 do in these assays?
StopGo reporter: -5%; Cruzain noTriton: 17%; Cruzain Triton: 0.4%; Lassa entry inh: 20%[46.1 µM]

How did Cc1ccc(OCc2nnc(N)s2)cc1 do in these assays?
MARV entry inh: inconclusive; StopGo reporter: 34%[activator]; SARS PLpro yeast: 0%; NS1 function inh: 2%; Lassa entry inh: inconclusive; RE007 growth inh: 6%

Results for CSc1nc(Cl)cc(Nc2ccccc2N)n1 ?
MARV entry inh: inconclusive; StopGo reporter: -8%; SARS PLpro yeast: -6%; Lassa entry inh: 12%; RE007 growth inh: 0%

Results for O=[N+]([O-])c1ccccc1-c1ccc(C(=S)N2CCCC2)o1 ?
MARV entry inh: inconclusive; StopGo reporter: 34%[activator]; SARS PLpro yeast: 0%; Lassa entry inh: 6%[46.1 µM]; RE007 growth inh: -5%

How did N#CNC(=Nc1ccccc1F)SCc1ccc(C(=O)O)cc1 do in these assays?
MARV entry inh: 2%[46.1 µM]; StopGo reporter: -1%; SARS PLpro yeast: 0%; NS1 function inh: -4%; Lassa entry inh: 0%[46.1 µM]; RE007 growth inh: 10%

How did COc1ccc(C(=O)Nc2ccccc2C(=O)N(Cc2ccco2)C(C(N)=O)C(C)C)cc1 (stereo unspecified) do in these assays?
MARV entry inh: inconclusive; StopGo reporter: -3%; Cruzain noTriton: 9%; SARS PLpro yeast: 0%; Cruzain Triton: 7.8%; NS1 function inh: -15%; Lassa entry inh: inconclusive; RE007 growth inh: 10%

How did CCOP(=O)(OCC)C(NC(=O)c1ccc(OC)cc1)C(Cl)(Cl)Cl (stereo unspecified) do in these assays?
MARV entry inh: 14%[46.1 µM]; StopGo reporter: -2%; SARS PLpro yeast: -2%; NS1 function inh: 1%; Lassa entry inh: 12%[46.1 µM]; RE007 growth inh: -1%

Results for CCOc1cc(C(=S)N2CCOCC2)ccc1OC(=O)c1cccc(C)c1 ?
StopGo reporter: inconclusive; SARS PLpro yeast: -5%; NS1 function inh: -36%; RE007 growth inh: 6%

How did CCOc1ccccc1Oc1c(C)oc2c(CN3CCN(C)CC3)c(O)ccc2c1=O do in these assays?
MARV entry inh: -8%; StopGo reporter: -4%; Cruzain noTriton: -2%; SARS PLpro yeast: 8%; Cruzain Triton: 8.2%; NS1 function inh: 2%; Lassa entry inh: -12%[14.3 µM]; RE007 growth inh: 0%

How did COc1cccc(NC(=O)Nc2nc(-c3ccc(OC)c(OC)c3)cs2)c1 do in these assays?
MARV entry inh: inconclusive; StopGo reporter: 25µM*; SARS PLpro yeast: -4%; NS1 function inh: -17%; Lassa entry inh: inconclusive; RE007 growth inh: 1%

Results for O=S(=O)(Nc1ncccn1)c1ccc(NC(=S)NCCc2ccc(Cl)cc2)cc1 ?
MARV entry inh: 5%[46.1 µM]; StopGo reporter: -9%; SARS PLpro yeast: 1%; Lassa entry inh: -9%[46.1 µM]; RE007 growth inh: 2%

Results for CCCCC(NC(C)=O)c1nc2ccccc2n1CCC (stereo unspecified) ?
MARV entry inh: -23%; StopGo reporter: -16%; Cruzain noTriton: -2%; SARS PLpro yeast: -40%; Cruzain Triton: 1.2%; NS1 function inh: -10%; Lassa entry inh: inconclusive; RE007 growth inh: -6%
